Vaccinia stage: blocks a specific stage of Vaccinia orthopoxvirus infection. Vaccinia-infected cells, mCherry/Venus stage reporter fluorescence; stronger effect = lower value; some inactives read as strong as hits. activity change (mCherry), % (no concentration beside the values). actives 0.01% (n = 89,000). AID 1053133;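 active means mCherry past -33% and 40 or more points under the early reporter, replicates agreeing; inconclusive means past -33% without that gap or agreement; tested in A549 cells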;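 further: scaled between vehicle wells and reference inhibitor wells; 23 nL library stock went into each well; one replicate is shown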
Vaccinia stage Venus: further read-out of Vaccinia stage, marked with its call; activity change (Venus), %; measured here: Venus reporter, other viral stage;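 negative = less Venus signal; first of two replicates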
An asterisk follows results filed as active; ? = inconclusive; . = no result given; & = joins results of further samples. Only part of the results is shown. The share of hits here may be higher or lower than overall.

Results follow in this order: Vaccinia stage Venus	Vaccinia stage
C[C@H]1CN([C@@H](C)CO)C(=O)c2cc(NC(=O)c3ccncc3)ccc2O[C@H]1CN(C)S(C)(=O)=O
→ 3	-5
O=C(C[C@H]1CC[C@@H]2[C@H](COC[C@H](O)CN2S(=O)(=O)c2cccc(Cl)c2)O1)Nc1ccccc1
→ -1	-7
Cc1cccc(-c2ccc([C@H]3[C@H]4CN(C(=O)c5ccccc5)CC(=O)N4[C@H]3CO)cc2)c1
→ .	?
C[C@H]1CN([C@@H](C)CO)C(=O)c2cc(C#CCc3ccccc3)cnc2O[C@H]1CN(C)Cc1cccc(C(=O)O)c1
→ 2	12
N#C[C@@H]1[C@H](c2ccccc2C2=CCCC2)[C@@H](CO)N1C(=O)C1CCC1
→ 10	11
C[C@@H]1CN([C@H](C)CO)C(=O)c2cc(C#CC3CCCC3)cnc2O[C@H]1CN(C)C(=O)Nc1ccccc1
→ -12	-7
O=C(N[C@H]1CC[C@@H](CCNS(=O)(=O)c2cccc(Cl)c2)O[C@@H]1CO)c1ccncc1
→ 1	2
C[C@@H]1CN([C@@H](C)CO)C(=O)c2cccc(NS(=O)(=O)c3ccc(F)cc3)c2O[C@@H]1CN(C)S(=O)(=O)c1ccccc1
→ 4	4
C[C@@H]1CN([C@H](C)CO)C(=O)c2cccc(NC(=O)C3CC3)c2O[C@H]1CN(C)Cc1ccc(Oc2ccccc2)cc1
→ .	?
C[C@H](CO)N1C[C@H](C)[C@H](CN(C)Cc2ccc(C(=O)Nc3ccccc3N)cc2)Oc2c(NC(=O)Nc3ccc4c(c3)OCO4)cccc2C1=O
→ -5	-2
C[C@@H]1CN([C@H](C)CO)C(=O)c2cc(/C=C/c3ccccc3)cnc2O[C@@H]1CN(C)C(=O)c1cccc(F)c1
→ -4	-7
CCCN(C)C[C@@H]1Oc2ncc(C#CCN(C)C)cc2C(=O)N([C@H](C)CO)C[C@@H]1C
→ 3&0	6&5
COc1ccc(CN(C)C[C@@H]2Oc3c(NS(=O)(=O)c4ccc(Cl)cc4)cccc3C(=O)N([C@@H](C)CO)C[C@@H]2C)cc1
→ -17	-26
O=C(C[C@@H]1C=C[C@H](NS(=O)(=O)c2ccc(F)cc2)[C@H](CO)O1)N1CCc2ccccc2C1
→ 18	12
C[C@H]1CN([C@@H](C)CO)C(=O)Cc2cc(NC(=O)CCN3CCOCC3)ccc2O[C@H]1CN(C)C(=O)Nc1ccccc1
→ 19	39
COc1ccc(S(=O)(=O)Nc2ccc3c(c2)C(=O)N([C@H](C)CO)C[C@H](C)[C@H](CN(C)S(=O)(=O)c2ccccc2)OCCCC[C@@H](C)O3)cc1
→ 11	1
C[C@@H]1CN([C@@H](C)CO)S(=O)(=O)c2ccc(-c3cccnc3)cc2O[C@H]1CN(C)Cc1ccccn1
→ 9	2
Cc1noc(C)c1NC(=O)N(C)C[C@H]1OCc2cnnn2CCCC(=O)N([C@H](C)CO)C[C@H]1C
→ 11	22
Cc1ccc(S(=O)(=O)N(C)C[C@@H]2OCc3cnnn3CCCC(=O)N([C@H](C)CO)C[C@@H]2C)cc1
→ -3	0
C[C@H]1CN([C@@H](C)CO)C(=O)Cc2cc(NC(=O)C3CC3)ccc2O[C@H]1CN(C)S(C)(=O)=O
→ 17	17
COc1ccccc1S(=O)(=O)Nc1ccc2c(c1)OC[C@@H](C)NC[C@H](C)[C@H](OC)CN(C)C2=O
→ -1	7
C[C@@H]1CCCCO[C@@H](CN(C)C(=O)Nc2ccc(F)cc2)[C@@H](C)CN([C@H](C)CO)C(=O)c2cc(NS(=O)(=O)c3ccccc3)ccc2O1
→ 13	16
C[C@H]1CN([C@@H](C)CO)C(=O)Cc2cc(NC(=O)CCN3CCOCC3)ccc2O[C@@H]1CN(C)S(=O)(=O)c1cn(C)cn1
→ 7	10
O=C(c1ccccc1F)N1CC[C@@H]2[C@H]1c1cc(Br)ccc1N[C@@H]2CO
→ -20	-24
C[C@@H]1CCCCO[C@H](CN(C)CC2CCCCC2)[C@@H](C)CN([C@H](C)CO)C(=O)c2cc(NC(=O)Nc3ccc4c(c3)OCO4)ccc2O1
→ .	?
Cc1ccc(S(=O)(=O)N(C)C[C@@H]2Oc3c(NS(C)(=O)=O)cccc3C(=O)N([C@@H](C)CO)C[C@@H]2C)cc1
→ -4	4
CCS(=O)(=O)N1[C@H](C#N)[C@H](c2ccc(-c3cccc(F)c3)cc2)[C@@H]1CO
→ .	?
C[C@@H]1CN([C@H](C)CO)C(=O)c2c(c3ccccc3n2C)-c2ccccc2CO[C@H]1CN(C)S(=O)(=O)c1cccc(F)c1
→ .	?
C[C@@H]1CN([C@H](C)CO)C(=O)c2cc(N(C)C)ccc2O[C@H]1CN(C)Cc1ccc2c(c1)OCO2
→ 3	9
Cc1ccc(S(=O)(=O)Nc2ccc3c(c2)CC(=O)N([C@@H](C)CO)C[C@@H](C)[C@H](CN(C)C(=O)Nc2cccc4ccccc24)O3)cc1
→ 8	7

As entered above:
C[C@@H]1CN([C@H](C)CO)C(=O)c2cc(N(C)C)ccc2O[C@H]1CN(C)Cc1ccc2c(c1)OCO2 in Vaccinia stage Venus shows 3
COc1ccc(S(=O)(=O)Nc2ccc3c(c2)C(=O)N([C@H](C)CO)C[C@H](C)[C@H](CN(C)S(=O)(=O)c2ccccc2)OCCCC[C@@H](C)O3)cc1 in Vaccinia stage shows 1
Cc1ccc(S(=O)(=O)N(C)C[C@@H]2OCc3cnnn3CCCC(=O)N([C@H](C)CO)C[C@@H]2C)cc1 in Vaccinia stage Venus shows -3
C[C@@H]1CCCCO[C@@H](CN(C)C(=O)Nc2ccc(F)cc2)[C@@H](C)CN([C@H](C)CO)C(=O)c2cc(NS(=O)(=O)c3ccccc3)ccc2O1 in Vaccinia stage Venus shows 13

Continuation.
Results follow in this order: Vaccinia stage Venus	Vaccinia stage
C[C@@H]1CN([C@H](C)CO)C(=O)c2cccc(NS(=O)(=O)c3ccc(Cl)cc3)c2O[C@@H]1CN(C)S(=O)(=O)c1ccccc1
→ 2	6
C[C@@H]1CN([C@@H](C)CO)C(=O)CCCn2nncc2CO[C@@H]1CN(C)S(=O)(=O)c1ccc(Cl)cc1
→ 17&-2	8&-6
CC(C)NC(=O)N(C)C[C@@H]1Oc2c(NS(=O)(=O)c3ccc(Cl)cc3)cccc2C(=O)N([C@@H](C)CO)C[C@@H]1C
→ -7	-3
C[C@H]1CN([C@@H](C)CO)S(=O)(=O)c2ccc(C#Cc3ccccc3F)cc2O[C@H]1CN(C)C(=O)Cc1cccnc1
→ -14	-29
C[C@H](CO)N1C[C@H](C)[C@H](CN(C)Cc2ccccc2)Oc2ccc(NC(=O)Cc3ccccc3)cc2C1=O
→ -1	0
C[C@@H]1CN([C@H](C)CO)C(=O)Cc2cc(NC(=O)C3CC3)ccc2O[C@@H]1CN(C)Cc1ccc(C(=O)Nc2ccccc2N)cc1
→ -17	-6
C[C@@H]1CN([C@H](C)CO)C(=O)c2cccc(NS(=O)(=O)c3ccc(Cl)cc3)c2O[C@@H]1CN(C)Cc1ccc2c(c1)OCO2
→ 3	1
C[C@H](CO)N1C[C@H](C)[C@@H](CN(C)S(=O)(=O)c2ccc(Cl)cc2)Oc2ccc(NC(=O)C3CC3)cc2C1=O
→ 6	8
C[C@@H]1CCCCO[C@H](CN(C)C)[C@H](C)CN([C@@H](C)CO)C(=O)c2cc(N(C)C)ccc2O1
→ -3	9
CO[C@H]1CN(C)C(=O)c2ccc(NC(=O)Nc3ccccc3)cc2OC[C@H](C)N(CC2CC2)C[C@H]1C
→ -9	-5
C[C@@H]1CN([C@@H](C)CO)C(=O)c2cc(NC(=O)C3CCCCC3)ccc2O[C@H]1CN(C)C(=O)Nc1ccccc1
→ 3	8
Cc1ccc(S(=O)(=O)N(C)C[C@@H]2Oc3c(NC(=O)c4nc5ccccc5s4)cccc3C(=O)N([C@H](C)CO)C[C@@H]2C)cc1
→ -12	-16
OC[C@H]1Nc2ccc(-c3cccc(F)c3)cc2[C@@H]2[C@H]1CCN2Cc1ccc(F)cc1
→ 24	0
C[C@@H]1CN([C@@H](C)CO)C(=O)c2cccc(NC(=O)c3ccncc3)c2O[C@H]1CN(C)Cc1ccccc1
→ 0	-2
CCCNC(=O)N1C[C@@H](C)[C@H](OC)CN(C)C(=O)c2cc(NS(=O)(=O)CC)ccc2OC[C@@H]1C
→ 3	3
O=C(C[C@H]1CC[C@H](NC(=O)c2ccc(F)cc2)[C@H](CO)O1)NCCc1ccncc1
→ -2	-1
C[C@H](CO)N1C[C@H](C)[C@@H](CN(C)C(=O)Nc2ccc3c(c2)OCO3)OCCCC[C@H](C)Oc2ccc(NC(=O)CCCN(C)C)cc2C1=O
→ 2	12
CO[C@H]1CN(C)C(=O)c2cc(NC(=O)c3cnccn3)ccc2OC[C@H](C)N(C(C)=O)C[C@@H]1C
→ 1	11
CC(C)NC(=O)Nc1ccc2c(c1)C(=O)N([C@@H](C)CO)C[C@@H](C)[C@H](CN(C)C(=O)NC(C)C)OCCCC[C@H](C)O2
→ 8	21
C[C@@H]1CCCCO[C@@H](CN(C)C(=O)Nc2ccccc2)[C@H](C)CN([C@H](C)CO)C(=O)c2cc(NS(=O)(=O)c3ccc(Cl)cc3)ccc2O1
→ -27	-30
C[C@H]1CN([C@@H](C)CO)C(=O)Cc2cc(NC(=O)C3CCCCC3)ccc2O[C@@H]1CN(C)C(=O)Nc1ccc(F)cc1
→ -1	8
COc1ccc(S(=O)(=O)N2C[C@H](O)COC[C@H]3O[C@H](CC(=O)NCc4ccc(Cl)c(Cl)c4)CC[C@@H]32)cc1
→ .	?
Cc1ccc(S(=O)(=O)N(C)C[C@H]2Oc3ccc(NC(=O)Nc4ccc(F)cc4)cc3C(=O)N([C@@H](C)CO)C[C@@H]2C)cc1
→ -8	-12
CC(=O)N(C)C[C@H]1Oc2cc(-c3ccccc3)ccc2S(=O)(=O)N([C@@H](C)CO)C[C@@H]1C
→ -8	3
CN(C)C(=O)c1cccc(-c2ccc([C@H]3[C@@H](CO)N4CCCCN(CCC(F)(F)F)C[C@@H]34)cc2)c1
→ 1	16
O=C(Nc1ccc(F)cc1)N[C@@H]1CC[C@H](CC(=O)N2CCCCC2)O[C@H]1CO
→ -10	-11
Cc1ccc(S(=O)(=O)N(C)C[C@@H]2OCCCC[C@H](C)Oc3ccc(NC(=O)c4ccncc4)cc3C(=O)N([C@@H](C)CO)C[C@H]2C)cc1
→ -5	-9
CCCN1[C@H](C(=O)NCC)[C@@H](CO)[C@@H]2Cn3c(ccc(-c4ccccc4F)c3=O)[C@@H]21
→ 2	4
CCCC(=O)N1CC2(CN(C(=O)CC3CC3)C2)c2c(n(C)c3cc(OC)ccc23)[C@H]1CO
→ 12	10
O=C(C[C@@H]1C[C@H]2c3cc(NC(=O)Nc4ccccc4F)ccc3O[C@H]2[C@H](CO)O1)NCc1ccc(Oc2ccccc2)cc1
→ .	?

As a working copy, 2 of the compounds above:
Results follow in this order: Vaccinia stage Venus	Vaccinia stage
C[C@@H]1CN([C@@H](C)CO)C(=O)c2cc(NC(=O)C3CCCCC3)ccc2O[C@H]1CN(C)C(=O)Nc1ccccc1
→ 3	8
Cc1ccc(S(=O)(=O)N(C)C[C@@H]2Oc3c(NC(=O)c4nc5ccccc5s4)cccc3C(=O)N([C@H](C)CO)C[C@@H]2C)cc1
→ -12	-16

Complete entries, looked up by structure:
Profile of `CO[C@H]1CN(C)C(=O)c2ccc(NC(=O)Nc3ccccc3)cc2OC[C@H](C)N(CC2CC2)C[C@H]1C` = Vaccinia stage Venus: -9; Vaccinia stage: -5
Profile of `Cc1ccc(S(=O)(=O)N(C)C[C@@H]2Oc3c(NC(=O)c4nc5ccccc5s4)cccc3C(=O)N([C@H](C)CO)C[C@@H]2C)cc1` = Vaccinia stage Venus: -12; Vaccinia stage: -16

Other results.
Results follow in this order: Vaccinia stage Venus	Vaccinia stage
COCC(=O)N1CCC2(CC1)CN(Cc1nccs1)[C@@H](CO)c1c2c2ccc(OC)cc2n1C
→ 7	11
CCCNC(=O)N[C@@H]1CC[C@H](CC(=O)NCCc2ccccc2)O[C@@H]1CO
→ 8	1
C[C@H]1CCCCO[C@H](CN(C)C(=O)Nc2ccc3c(c2)OCO3)[C@@H](C)CN([C@@H](C)CO)C(=O)c2cc(NS(=O)(=O)c3cn(C)cn3)ccc2O1
→ 14	14
O=C(C[C@@H]1C[C@H]2c3cc(NC(=O)Nc4ccccc4)ccc3O[C@H]2[C@H](CO)O1)NC1CCCCC1
→ -10	-6
Cc1noc(C)c1NC(=O)N(C)C[C@@H]1OCCCC[C@@H](C)Oc2ccc(NC(=O)NC(C)C)cc2C(=O)N([C@H](C)CO)C[C@@H]1C
→ 1	8
O=C(NC1CCCC1)N[C@@H]1CC[C@@H](CC(=O)N2CCOCC2)O[C@@H]1CO
→ 7	-5
C[C@H](CO)N1C[C@H](C)[C@@H](CN(C)S(=O)(=O)c2ccc(F)cc2)Oc2ccc(NC(=O)NC3CCCCC3)cc2C1=O
→ -5	-7
CN1C(=O)c2cc(NC(=O)c3ccccc3)ccc2OC[C@@H]2O[C@@H](CC(=O)O)CC[C@H]21
→ -1	-1
C[C@H](O)C#Cc1cnc2c(c1)C(=O)N([C@H](C)CO)C[C@@H](C)[C@H](CN(C)C(=O)Cc1ccccn1)O2
→ 0	0
CN1C(=O)c2cc(NS(=O)(=O)c3ccc(F)cc3)ccc2OC[C@@H]2O[C@@H](CC(=O)NCC(F)(F)F)CC[C@H]21
→ 9	13
C[C@H]1CN([C@@H](C)CO)S(=O)(=O)c2ccc(-c3cccc(C#N)c3)cc2O[C@@H]1CN(C)C(=O)C1CC1
→ 8	19
CC(=O)Nc1ccc2c(c1)C(=O)N(C)[C@H]1CC[C@@H](CC(=O)NCc3ccc(F)cc3)O[C@@H]1CO2
→ -4	-1
C[C@H]1CN([C@@H](C)CO)C(=O)c2ccccc2-c2ccccc2CO[C@@H]1CN(C)Cc1ccc(C(=O)O)cc1
→ 24	31
CO[C@@H]1CN(C)C(=O)c2ccc(NC(=O)C3CCC3)cc2OC[C@H](C)N(Cc2nccs2)C[C@H]1C
→ 4	5

Bioassay records: PubChem, Broad Institute
